miR-21 reporter: miR-21 reporter, rising signal. HeLa miR-21 FLuc reporter, luciferase, 48 h. 340,000 tested, under 10 active. Potency, µM (doses to about 38.3 µM), without a hit: at the top dose reporter change, positive = more light; active = well fitted rising curve with a large enough effect; inconclusive = small, poorly fitted or top-dose-only effect; inactive = no such curve, though single readings can be large or run the other way;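 note: % of control where 0% means no effect; miR-21 action dims this reporter so a rising signal means less miR-21 action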
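Luminescence from a firefly luciferase reporter carrying a miR-21 binding site downstream, stably expressed under a CMV promoter in HeLa cells that make miR-21 endogenously, reports miRNA modulation after 48 h compound exposure up to approximately 40uM final.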
Rango-impB inh: prevents formation of the Rango-importin beta complex. Q14974. Rango CFP/YFP FRET sensor + importin beta, 45 min. Potency, µM (doses to about 92.2 µM), for inactives: at the top dose inhibition of complex formation. 340,000 tested, 0.031% active. AID 540263; active = rising FRET ratio curve, often small or poorly fitted; inconclusive = mostly compound fluorescence or quenching in the first reads; inactive = flat curves in all reads;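 note: potency is the fitted concentration of half-maximal effect; 0% = DMSO wells and 100% = buffer wells lacking importin beta; nearly all actives have a fitted effect of over 15% in size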
Target sequence (Q14974 whole entry, looked up): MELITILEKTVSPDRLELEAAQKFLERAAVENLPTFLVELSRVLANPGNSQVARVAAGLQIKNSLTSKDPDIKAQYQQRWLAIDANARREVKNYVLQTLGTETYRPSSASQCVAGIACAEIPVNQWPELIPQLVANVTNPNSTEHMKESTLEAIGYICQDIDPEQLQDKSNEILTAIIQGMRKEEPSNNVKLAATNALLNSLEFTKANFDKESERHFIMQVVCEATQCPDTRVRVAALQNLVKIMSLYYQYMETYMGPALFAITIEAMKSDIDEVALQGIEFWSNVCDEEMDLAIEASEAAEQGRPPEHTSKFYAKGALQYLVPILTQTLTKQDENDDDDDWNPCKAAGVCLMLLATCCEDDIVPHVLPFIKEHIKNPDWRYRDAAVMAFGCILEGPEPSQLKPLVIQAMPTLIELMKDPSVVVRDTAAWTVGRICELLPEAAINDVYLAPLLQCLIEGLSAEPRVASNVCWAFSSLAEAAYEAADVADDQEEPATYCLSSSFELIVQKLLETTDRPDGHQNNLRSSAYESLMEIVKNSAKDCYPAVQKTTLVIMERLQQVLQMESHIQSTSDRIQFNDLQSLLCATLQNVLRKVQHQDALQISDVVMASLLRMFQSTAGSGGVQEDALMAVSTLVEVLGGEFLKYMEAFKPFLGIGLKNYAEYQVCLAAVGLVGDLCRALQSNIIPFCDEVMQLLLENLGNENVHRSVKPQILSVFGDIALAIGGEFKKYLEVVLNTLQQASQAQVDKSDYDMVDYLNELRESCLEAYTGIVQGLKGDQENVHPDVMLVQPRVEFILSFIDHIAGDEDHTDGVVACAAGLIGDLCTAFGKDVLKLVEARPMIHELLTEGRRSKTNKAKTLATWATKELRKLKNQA
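Inhibition scored from the CFP 486 nm/YFP 530 nm FRET ratio 45 min after adding 0.125 microM importin beta to 50 nM Rango biosensor preincubated 5 min with compound (room temperature, PBS with DTT, Tween-20, BSA). No-importin wells as positive control.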
GLA inh pH 4.5: inhibitors of human alpha-galactosidase A at pH 4.5; activity change, negative = inhibition, % at 105 µM; 230,000 tested, under 10 active; P06280; purified enzyme, 4-MU-alpha-Gal fluorescence, pH 4.5; inconclusive = small, poorly fitted or top-dose-only inhibition, or a rising curve; inactive = flat fitted curve, though single readings scatter; no compound was filed as active;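 note: 0% = full activity with enzyme and -100% = basal without enzyme; dose as in the result columns while the protocol names 77 µM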
Rango dissoc inh: inhibitors of RanGTP-induced Rango-importin beta complex dissociation; O95149+P62826; Biochemical FRET Rango-importin beta, RanGTP-induced dissociation; Potency, µM (doses to about 46.1 µM), inactives show top-dose activity change, negative = inhibition; 340,000 tested, 0.071% active; active means falling FRET ratio curve, often poorly fitted, with flat reads before Ran was added; inconclusive means other falling curves, or compound fluorescence or quenching; inactive means flat or rising ratio curve;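 note: potency is the fitted concentration of half-maximal effect; % of control where 0% means no effect; nearly all actives have a fitted effect of over 45% in size; -100% = wells without RanGTP and RCC1; the record marks most hits as doubtful in a second field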
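Two FRET readings bracket the reaction: one 5 min after compound meets Rango–importin beta, another 45 min after RanGTP-RCC1 (0.6 uM Ran, 0.2 uM RCC1, 2 mM GTP) is added. Only the second defines inhibition.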
Active calls of the source: *; ? = inconclusive; nt = not tested or not shown; & = joins results of further samples. A portion of the library, so the mix of outcomes need not match the whole.

Each structure is followed by: GLA inh pH 4.5 | Rango dissoc inh | Rango-impB inh | miR-21 reporter
> COc1ccc(OCc2cc(C(=O)N(C)Cc3cc(C4CC4)n[nH]3)no2)c(Cl)c1
  nt | -4% | 0.1% | -19%
> COC(=O)Cn1cnc2c(nnn2-c2ccc(C)cc2)c1=O
  -6 | -4% | 2.7% | -1%
> CC(C)(/C=N/O)N(O)C=C1C=CC(=O)C=C1
  -4 | 14% | -0.3% | -6%
> COc1cc(/C=N/O)cc(Cl)c1OC
  5 | 7% | -5.2% | -1%
> N#C/C(=C\c1ccc(-c2ccc(F)cc2)o1)C(=O)Nc1nc(-c2cccs2)cs1
  5 | 20% | 1.3% | -7%
> CN1CCN(S(=O)(=O)c2ccc(NS(=O)(=O)c3ccccc3)cc2)CC1
  nt | -17% | 0.0% | 0%
> CC(=O)N1CCC2(CC1)C(C#N)=C(N)Oc1n[nH]c(C(F)(F)F)c12
  -2 | 0% | -4.3% | -4%
> O=C(CSc1nc2ccccc2c(=O)n1Cc1ccco1)NCc1ccccc1
  nt | -9% | -2.2% | nt
> Cc1cc(C)c(S(=O)(=O)Nc2nccs2)c(C)c1
  nt | -2% | -3.7% | -2%
> NC(=O)c1ccc2nc(-c3ccccc3)c(-c3ccccc3)nc2c1
  nt | -4% | 0.0% | -4%
> Cc1ccc(Cl)c(NC(=O)COC(=O)c2nn(C)c(=O)c3ccccc23)c1Cl
  nt | -3% | 0.5% | nt
> CCN(CC)c1ncnnc1-c1ccccc1
  1 | 3% | -0.5% | -25%
> CC1CN(S(=O)(=O)c2ccccc2)C(C)CN1S(=O)(=O)c1ccccc1 (centres undefined)
  3 | 17% | 11% | -8%
> CCCCn1c(N)c(N(CC)C(=O)/C=C/c2ccco2)c(=O)[nH]c1=O
  -23 | 6% | 0.6% | 0%
> O=C(N/C(=C/c1ccc(F)cc1)C(=O)N1CCCCC1)c1ccco1
  nt | 4% | -1.7% | -2%
> COC(=O)[C@H]1CN(C(=O)c2ccccc2)C(=O)N1
  nt | 8% | 7.5% | 0%
> CC(=O)Oc1ccc(C(=O)[C@H]2[C@H]3C(=O)N(c4cccc5ccccc45)C(=O)[C@H]3[C@@H]3C=CC=NN32)cc1
  2 | -16% | ? | -6%
> Cc1c(Cl)cccc1NC(=O)COC(=O)C12CC3CC(CC(O)(C3)C1)C2
  nt | 10% | -2.5% | nt
> Cc1ccc2cc(/C=N/NC(=O)[C@H]3C[C@@H]3c3ccccc3)c(Cl)nc2c1
  26 | -3% | 1.7% | -21%
> COc1ccc(N2C3=C(C(=O)CC(C)(C)C3)C(c3ccccc3OC)C3=C2CC(C)(C)CC3=O)cc1
  18 | ? | ? | 14%
> Cc1ccc(S(=O)(=O)N2CCN(C3CC4CCC3C4)CC2)cc1 (centres undefined)
  nt | 8% | 4.6% | 0%
> COc1ccc(-c2oc3ccc(-c4cc(OC)c(OC)c(OC)c4)cc3c2-c2ccc(OC)nc2)cc1
  nt | 4% | -2.3% | 1%
> CCOC(=O)N1CCN(Cc2ccc3ccccc3c2)CC1
  nt | 4% | -1.1% | 0%
> COC(=O)/C(C#N)=C/c1ccc(C)o1
  -2 | -8% | 5.5% | -5%
> FC(F)(F)c1cnc(C(c2ccccc2)c2ncn[nH]2)c(Cl)c1 (centres undefined)
  8 | 20% | 4.6% | -3%
> COc1ccc(NS(=O)(=O)c2cccc(C(=O)NCC3(N4CCCCC4)CCCCC3)c2)cc1
  nt | 21% | -4.2% | nt
> Cc1ccc(C)c(N2C(=N)S/C(=C\c3ccc(-c4ccccc4C(=O)O)o3)C2=O)c1
  9 | ? | ? | -1%
> O=C(NCc1ccccc1)c1ccc2nccnc2c1
  9 | -1% | -1.5% | 0%
> COc1cccc(NC(=S)N2CCN(c3ccccn3)CC2)c1
  2 | -13% | 1.7% | -19%
> CN(C)CC/C=C1/c2ccccc2CS(=O)(=O)c2ccccc21
  nt | 5% | 3.4% | nt

Some of the entries above, reformatted:
structure	GLA inh pH 4.5	Rango dissoc inh	Rango-impB inh	miR-21 reporter
Cc1ccc(S(=O)(=O)N2CCN(C3CC4CCC3C4)CC2)cc1 (centres undefined)	nt	8%	4.6%	0%
CCOC(=O)N1CCN(Cc2ccc3ccccc3c2)CC1	nt	4%	-1.1%	0%
COC(=O)/C(C#N)=C/c1ccc(C)o1	-2	-8%	5.5%	-5%
COc1ccc(NS(=O)(=O)c2cccc(C(=O)NCC3(N4CCCCC4)CCCCC3)c2)cc1	nt	21%	-4.2%	nt
CC(=O)Oc1ccc(C(=O)[C@H]2[C@H]3C(=O)N(c4cccc5ccccc45)C(=O)[C@H]3[C@@H]3C=CC=NN32)cc1	2	-16%	?	-6%

Carrying on.
Each structure is followed by: GLA inh pH 4.5 | Rango dissoc inh | Rango-impB inh | miR-21 reporter
> Cc1cc(C=O)c(C)n1-c1ccc(Oc2ccc([N+](=O)[O-])cn2)cc1
  0 | 0% | -1.2% | 29%
> S=C(NCc1ccccn1)Nc1ccccc1
  11 | 0% | -0.2% | -30%
> CC1(C)CC(=O)C2=C(C1)OC(N)=C(C#N)C2c1ccc(OC(=O)N2CCOCC2)cc1 (centres undefined)
  10 | 16% | -0.8% | -5%
> Cn1cccc1CC(=O)N/N=C/C(Cl)=C/c1ccccc1
  -3 | -7% | 2.3% | -32%
> O=C(Nc1nc2ccc(S(=O)(=O)N3CCCC3)cc2s1)c1ccco1
  5 | 2% | -1.3% | -19%
> O=C(OCC(=O)N1CCCC1=O)c1cc2ccccc2o1
  nt | -2% | 2.9% | nt
> COCCCNC(=O)CC1C[C@H](C(=O)N2CCCCC2)[C@@]2(C)c3[nH]c4ccc(OC)cc4c3CCN2C1=O (some centres undefined)
  nt | -1% | 3.6% | nt
> CCOc1ccc(CCNC(=O)C2CCCN(c3ncnc4c3nc3n4CCCCC3)C2)cc1 (centres undefined)
  nt | 0% | 0.5% | 2%
> COc1cccc(C2c3cc4c(cc3OC(C)(N3CCCC3)C2C)OCO4)c1O (centres undefined)
  nt | 0% | -1.3% | nt
> O=C(Nc1ccc2c(c1)OCCO2)c1cc(-n2cnnc2)ccc1Cl
  0 | -4% | -5.7% | -12%
> Nc1nc(N)c(N=O)c(OCC2CCCCC2)n1
  nt | 0% | -0.1% | -15%
> Cc1cccc(Nc2nc(N)c([N+](=O)[O-])c(N3CCN(C)CC3)n2)c1
  -7 | -1% | -1.6% | -15%
> CC(=O)Nc1cc2c(cc1NC(=O)Cn1nc(-c3ccc(F)cc3)ccc1=O)OCCO2
  nt | 18% | -4.7% | -1%
> O=C(NCc1ccco1)c1cc(NS(=O)(=O)c2cccc([N+](=O)[O-])c2)ccc1O
  -27 | 2% | 1.9% | 11%
> O=C1CC(c2ccc(Cl)cc2)n2nc(N3C(=O)CCC3=O)nc2N1 (centres undefined)
  5 | -3% | 3.1% | 3%
> CC(C)(C)c1ccc(C(=O)O/N=C(\N)c2ccccn2)cc1
  nt | -5% | 1.0% | ?
> COc1ccc(CNc2nc3ccccc3s2)cc1OC
  nt | 0% | 2.0% | -19%
> CCN(CC)S(=O)(=O)c1ccc(C(=O)NCc2ccc(C)cc2)cc1
  -3 | 16% | -3.2% | -8%
> COc1cc(OC)c(C(=O)OCC(=O)N2CCOCC2)cc1OC
  nt | 16% | -0.2% | 1%
> Cc1ccc(CNC(=O)[C@H](Cc2ccccc2)NC(=O)C2CCNCC2)cc1
  nt | 7% | -2.4% | -4%
> O=C(NC1CC1)c1ccc(NC(=O)C2CCCC2)cc1
  nt | 1% | -2.6% | nt
> Cc1cc(NC(=O)CN(C)S(=O)(=O)c2ccc(-c3ccc(=O)[nH]n3)s2)ccc1Br
  nt | -8% | -3.5% | -6%
> CSCC[C@H](NC(=O)NCc1cccs1)C(=O)O
  -1 | 34% | 6.5% | -7%
> CC(=O)Nc1ccc(NC(=O)C(NS(=O)(=O)c2cccc3nsnc23)C(C)C)cc1 (centres undefined)
  nt | 12% | 0.3% | -2%
> CCOC(=O)c1c(NC(=O)CN2C(=O)NC3(CCCCC3C)C2=O)sc(C)c1CC (centres undefined)
  nt | -6% | ? | nt
> Cc1cccc(NC(=O)c2cc([N+](=O)[O-])ccc2NCC2CCCO2)n1 (centres undefined)
  -14 | -18% | -0.3% | 11%
> COc1ccc(CN(C)Cc2nc3scc(-c4ccccc4)c3c(=O)[nH]2)cc1OC
  -2 | 15% | -2.1% | -1%
> CCOC(=O)C1=C(C)N(CCCCCC(=O)O)C(=O)NC1c1ccc(Cl)cc1 (centres undefined)
  nt | -9% | -1.5% | -9%
> COc1ccc(CNC(=O)COC(=O)c2ccc(S(=O)(=O)N3CCCCC3)cc2)cc1
  nt | -10% | 0.5% | nt
> CCC1CCCCN1CCNC(=O)CNS(=O)(=O)c1ccc2nc(C)sc2c1 (centres undefined)
  -2 | -4% | -2.6% | -3%

Entries of single compounds, looked up by structure.
Record of CCC1CCCCN1CCNC(=O)CNS(=O)(=O)c1ccc2nc(C)sc2c1 (centres undefined) → GLA inh pH 4.5 = -2; Rango dissoc inh = -4%; Rango-impB inh = -2.6%; miR-21 reporter = -3%
Record of Cc1cccc(NC(=O)c2cc([N+](=O)[O-])ccc2NCC2CCCO2)n1 (centres undefined) → GLA inh pH 4.5 = -14; Rango dissoc inh = -18%; Rango-impB inh = -0.3%; miR-21 reporter = 11%

(cont.)
Each structure is followed by: GLA inh pH 4.5 | Rango dissoc inh | Rango-impB inh | miR-21 reporter
> Cc1ccc(-n2ncc3c(=O)n(CC(=O)NC4CCCCC4)cnc32)cc1
  6 | 1% | -5.5% | -11%
> CN(C)CCCNC(=O)c1cc(Br)ccc1O
  6 | 7% | 4.0% | -5%
> O=C(NCc1csc2ccccc12)Nc1cc(Cl)cc(Cl)c1
  0 | -10% | 1.8% | 27%
> COCCCNCC(O)C(F)(F)F (centres undefined)
  -1 | -10% | -0.3% | -3%
> COc1ccc(C)cc1S(=O)(=O)Nc1cc(Cl)ccc1Cl
  -9 | -12% | -0.5% | -10%
> COc1cc(/C=N/O)ccc1Oc1cnccn1
  nt | -16% | 2.7% | -1%
> COc1cccc([C@@H]2Oc3ccc(Br)cc3C(=O)[C@H]2OC(=O)NC2CCCC2)c1
  -2&-7 | 11% | 0.6% | -8%
> CCOC(=O)c1ccc(-c2ccc3oc(-c4ccsc4)cc(=O)c3c2)cc1F
  nt | -10% | -0.1% | nt
> Cc1cc(NC(=O)c2sccc2C)n(-c2cccc(Cl)c2)n1
  12 | -5% | -1.5% | -23%
> CCC(C)N(C(=O)COc1ccc(-c2nnco2)cc1)C1CCS(=O)(=O)C1 (centres undefined)
  nt | 0% | 2.3% | nt
> COc1ccc([C@H]2CC(=O)C=C(c3ccc4ncccc4c3)C2)cc1OC
  nt | 37% | 1.7% | nt
> Cc1ccc(-c2nc3cc(Cl)ccc3o2)cc1
  -1 | 1% | -0.4% | -57%
> CC(=O)Nc1cccc(NC(=S)Nc2cccc(Cl)c2C)c1
  2 | -6% | 1.3% | -4%
> O=C(NCc1ccccn1)/C(=N/O)c1ccccc1
  3 | 0% | -4.3% | -24%
> c1ccc(-n2nnnc2Oc2ccc(-n3ccnc3)cc2)cc1
  1 | 3% | 0.5% | 1%
> COc1ccc(CNC(=O)[C@H](Cc2c[nH]c3ccccc23)NC(=O)[C@@H]2Cc3ccccc3CN2)cc1
  nt | -22% | 1.9% | 4%
> CCN(CC)CCN1C(=O)C(=O)/C(=C(/O)c2c(C)[nH]c(C(=O)OC)c2C)C1c1ccccc1 (centres undefined)
  5 | -3% | -0.1% | -2%
> COc1ccccc1S(=O)(=O)c1c(C)cc(C)[nH]c1=O
  nt | 0% | -1.9% | -1%
> NC(=S)Nc1ccc2c(c1)OCO2
  14 | 11% | 3.0% | 1%
> COc1ccc(C(=O)N(C)c2c(C)n(C)n(-c3ccccc3)c2=O)cc1OC
  4 | -12% | -1.8% | 1%
> Cc1ccc(C(=O)NCCCNC(=O)COc2ccc(Cl)c(C)c2)cn1
  nt | 35% | 0.9% | nt
> Oc1ccc2[nH]cnc2c1CN1CCCCC1
  -5 | -2% | -0.1% | 0%

Source: PubChem (National Center for Advancing Translational Sciences (NCATS))
